# Screening results as filed in PubChem.
# MLL AF4-AF9 inh = blocks AF4 peptide binding to human AF9 | AID 651704 | inhibition, % at 10 µM | P42568 | 350,000 tested, 0.47% active | AlphaScreen, biotin-AF4 peptide binding to FLAG-AF9;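 active = every replicate reaching a set inhibition limit, whatever the replicate mean, cut at about 25% in these data; inconclusive = mean inhibition reaches that limit but some replicates miss it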;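 note: 0% = plate neutral control median and 100% = total signal loss; the record names both 10 and 1 µM as test concentration; the first replicate is given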
# Target sequence (P42568 whole entry, looked up): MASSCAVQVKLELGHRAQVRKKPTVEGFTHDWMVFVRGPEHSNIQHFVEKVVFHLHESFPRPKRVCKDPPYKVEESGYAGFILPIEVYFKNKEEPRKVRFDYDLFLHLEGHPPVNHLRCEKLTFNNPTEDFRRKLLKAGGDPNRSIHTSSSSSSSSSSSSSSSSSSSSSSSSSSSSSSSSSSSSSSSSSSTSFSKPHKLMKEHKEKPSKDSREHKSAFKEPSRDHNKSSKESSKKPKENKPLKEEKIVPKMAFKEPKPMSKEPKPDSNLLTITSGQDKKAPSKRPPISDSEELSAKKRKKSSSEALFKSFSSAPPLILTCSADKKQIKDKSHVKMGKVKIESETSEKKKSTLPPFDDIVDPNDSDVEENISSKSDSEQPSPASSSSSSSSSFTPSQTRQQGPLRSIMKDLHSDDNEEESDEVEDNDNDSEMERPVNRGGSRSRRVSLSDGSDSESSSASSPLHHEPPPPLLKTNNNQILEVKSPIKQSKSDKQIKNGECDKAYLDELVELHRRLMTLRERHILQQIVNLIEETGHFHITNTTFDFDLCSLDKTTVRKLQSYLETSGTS
# Calb FLC = affects C. albicans growth with fluconazole; growth inhibition, % (concentration not given with the values); C. albicans CaCi-2 (fluconazole-resistant clinical isolate) + fluconazole, Alamar Blue growth, 48 h; 300,000 tested, 0.57% active; AID 1979;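 active = most replicates above 75%; inconclusive = exactly half above 75%; inactive = most below 75%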;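 note: all wells also contain fluconazole at 8 µg/ml as a sub-toxic cotreatment; 0% = median of DMSO wells and 100% = median of geldanamycin control wells; wells of about 8 µL received 7.5 nL stock; the first replicate is given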
# A1 inh = inhibitors of the anti-apoptotic protein A1, read as caspase activation | MEF A1-2A-BIM cells, Caspase-Glo 3/7 luminescence, 3 h; percent of clofoctol response, vehicle zero | caspase activation, % (no concentration beside the values) | 330,000 tested, 0.066% active;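 active = over half of replicate activation scores above 10%, or exactly half above 10 with the replicate mean above 10; inconclusive = replicate mean below 10 yet half the replicates above 10; inactive = over half of replicates below 10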;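 note: wells of about 30 µL received 50 nL stock; many hits fall short of the cut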
# Ecoli rRNA inh = inhibits bacterial ribosomal RNA function over humanized ribosomes; E. coli WT GFP vs humanized-ribosome RFP mutants, fluorescence, 24 h; stronger effect = lower value; DMSO median 0, no signal -100; GFP signal change (wild-type ribosome), % (concentration not given with the values); 350,000 tested, 1.6% active;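 active = significant combined selectivity score with lowered wild-type GFP, culture density cut under 30%, mutant RFP and density less affected; inactive = any of these conditions unmet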; note: one replicate is shown; some compounds called inactive have numbers as strong as hits
# RanGTP-Impb inh = inhibitors of RanGTP-importin-beta interaction, primary screen, biochemical, FRET, CFP-Ran, YFP-importin-beta, homogeneous; AID 2216; cell-free CFP-Ran/YFP-importin-beta FRET ratio; inhibition, % (concentration not given with the values); 300,000 tested, 1.1% active;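 active = most replicates above 15%; inconclusive = exactly half above 15%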;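 note: 0% = DMSO wells and 100% = Ran loaded with GDP instead of GTP; wells of about 40 µL received 100 nL stock; the first replicate is given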
# Vif TR-FRET = HIV-1 Vif–A3G interaction blockers – biochemical, TR-FRET, GST-Vif 1-94, biotin-A3G peptide, dose response retest, primary screen (AID 1117319). TR-FRET GST-Vif / biotin-A3G peptide binding; higher % means a stronger effect; test concentration not given here; strong numbers were not always called active. inhibition, %; hits with a dose series show IC50 in µM. 260,000 tested, 0.57% active;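 active = above the screen mean plus three standard deviations and confirmed in dose response; inconclusive = results disagree or hit not tested in dose response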;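 note: Vif residues 1-94 fused to GST binding biotinylated APOBEC3G peptide 110-148; 0% = full assay without inhibitor and 100% = GST in place of GST-Vif; retest series ran down from 100 µM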
# T cruzi inh = blocks replication of Trypanosoma cruzi. T. cruzi beta-gal in NIH3T3, luminescence, 90 h. inhibition, % (concentration not given with the values). 300,000 tested, 1.4% active;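 active = mean inhibition across valid replicates above about 55%, limit read from the data; inconclusive = mean below that limit but half or more replicates reach it; inactive = mean below it, under half of replicates reach it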;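 note: signal also drops with host cell toxicity which is not excluded here; 0% = plate median of DMSO wells and 100% = zero luminescence signal; higher percent means less beta-gal luminescence so fewer parasites; stock transfer was 50 nL into about 50 µL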
# Beta apoptosis = blocks beta cell apoptosis; protection from apoptosis, % (no concentration beside the values); 300,000 tested, 0.8% active; INS-1E cytokine-induced death, ATP luminescence, 48 h; percent of positive-control rescue, neutral wells zero;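 active = all replicates at 75% or more, or half of them and the mean; inconclusive = half reach 75% but not the mean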;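 note: 0% = cytokine-treated negative control wells and 100% = positive control rescue; higher means more ATP so stronger rescue from cytokine killing; wells of about 40 µL received 100 nL stock; the first replicate is given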
# Ecoli rRNA inh OD600 = second read-out of Ecoli rRNA inh, no call of its own (marks repeat the call); OD600 change, %; measured here: OD600 growth;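 optical density of the mix in the first replicate; 0 = DMSO median and -100 = no signal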
# Ecoli rRNA inh RFP = recorded beside Ecoli rRNA inh, whose call it bears; RFP signal change, %; measured here: RFP humanized mutant strains;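 first replicate; 0 = DMSO median and -100 = no signal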
# * marks the source's active call; other numbers are inactive results; u = inconclusive; x = not tested or not shown; & = joins results of further samples. Not all compounds are listed (hit frequency here may not be typical).
SMILES,MLL AF4-AF9 inh,Calb FLC,A1 inh,Ecoli rRNA inh,Ecoli rRNA inh OD600,Ecoli rRNA inh RFP,RanGTP-Impb inh,Vif TR-FRET,T cruzi inh,Beta apoptosis
COc1ccc2ccccc2c1CN(C)Cc1ccccc1,-2.6,-28.4,-0.8,9.8,-4.2,-5.7,-0.9,x,16.4,0.8
CCc1ccccc1NC(=O)c1ccc(S(=O)(=O)NCC2CCCO2)cc1 (stereo unspecified),2.6,-2.9,0.3,5.1,4.6,0.3,1.5,x,-4.0,2.4
CCOC(=O)C1CCN(CC(O)COc2ccc(C(C)(C)CC)cc2)CC1 (stereo unspecified),x,-42.3,1.4,x,x,x,-0.8,5.9%,14.4,-2.6
CC1CCCCN1CCNC(=O)C1CCN(S(=O)(=O)c2cccc3cccnc23)CC1 (stereo unspecified),7.9,0.8,1.0,9.8,3.5,-0.1,u,-1.8%,5.2,x
COc1cccc(CNC(=O)C2CSC3(C)CCC(=O)N23)c1 (stereo unspecified),-5.7,0.4,0.0,0.8,15.4,-1.0,-6.8,1.4%,1.1,-4.6
COC(=O)c1ccc(Oc2ccc(S(=O)(=O)N3CCCCC3)cc2N)cc1,-0.5,3.2,-1.0,-13.2,-21.1,-4.8,1.3,x,6.7,-6.8
COC(=O)Nc1ccc2c(c1)N(C(=O)CCN1CCN3CCCC3C1)c1ccccc1CC2 (stereo unspecified),2.7,2.4&-12.7,0.8&1.0,-2.1,-0.1,-1.2,-3.0&-6.1,13.8%,-1.6&1.3,-5.0&2.1
CCOc1ccc(C(=O)Nc2nncs2)cc1OCC,-46.0,7.2,0.0,3.4,6.9,2.7,0.1,-3.8%,-0.7,-2.1
COc1ccc(Cc2nnc(NCCO)[nH]c2=O)cc1,4.9,18.5,1.2,6.2,21.1,-0.8,2.9,x,-3.4,-2.3
CC(C(=O)NC1CCCCCC1)c1ccc([N+](=O)[O-])cc1 (stereo unspecified),-6.9,-12.6,-0.3,21.9,12.0,2.9,-2.3,-4.8%,-12.0,-2.7
Cn1c(CNc2ccc(F)cc2)nnc1SCC(=O)NNC(=O)Cc1ccccc1,2.1,-19.8,0.5,8.8,10.9,-2.1,0.5,x,-3.4,-11.0
Cc1nn(-c2ccccc2)c2c1C(O)CC(C)(C)C2 (stereo unspecified),2.6,-3.9,-0.5,4.1,8.8,-1.2,2.6,-0.5%,-1.2,-7.2
CCc1cc2c(=O)c(-c3nc4ccccc4n3C)c(C)oc2c(CN(CC)CC)c1O,x,-1.9,-0.7,x,x,x,-2.9,-0.8%,-8.3,-8.5
CC(=O)c1cccc(S(=O)(=O)N2CCCC(c3nc4c(nnn4Cc4cccc(Cl)c4)c(=O)[nH]3)C2)c1 (stereo unspecified),-1.3,-0.9,-0.7,-3.3,-8.0,-0.7,-4.4,x,-2.0,-10.0
O=C(NCc1ccccn1)C(=O)NN=C1CCCCCCC1,-8.2,-15.0,0.7,14.3,27.6,8.3,2.8,0.5%,-2.3,-3.6
Cc1ccc2c(c1)N(Cc1ccc([N+](=O)[O-])cc1)C=NS2(=O)=O,-0.5,5.7,-0.4,14.8,15.8,-1.3,8.3,-2.3%,-5.7,-3.9
CN1C(=O)[C@@H]2[C@@H]3C[C@@H]([C@H]4ON=C(c5ccc(Cl)cc5Cl)[C@@H]34)[C@@H]2C1=O,x,-2.9,u,x,x,x,-1.6,14.3%,0.8,-3.1
CCC(=O)Nc1nc2ccccc2n1Cc1ccc(C)cc1,x,4.7,-1.0,x,x,x,-1.1,-0.4%,39.0,22.3
CCC(C(=O)NC(C)(C)C)N(Cc1ccc(F)cc1)C(=O)c1snc(C(N)=O)c1N (stereo unspecified),-9.9,0.6,1.9,0.6,9.6,1.4,1.9,x,15.9,x
CC1=C(C)CC2C(=O)N(Cc3ccccc3)C(=O)C2C1 (stereo unspecified),x,-11.2,0.0,x,x,x,0.0,-0.1%,-1.6,-1.9
COc1cc2[nH]c(=O)n(CCC(=O)NCCCN3CCN(c4ccccc4F)CC3)c(=O)c2cc1OC,6.9,-3.7,0.0,4.4,9.1,-10.0,1.3,-1.7%,-5.2,2.0
Cc1ccc(C(=O)N/N=C/c2ccc(-c3ccccc3[N+](=O)[O-])o2)cn1,5.7,1.0,0.4,x,x,x,2.7,u,-23.5,x
O=C(N/N=C/c1cccs1)C1CC(=O)N(c2ccccc2)C1 (stereo unspecified),x,6.4,1.0,x,x,x,-4.1,7.6%,-20.9,-10.0
Cc1ccc(N2C(=O)CCC(C(=O)O)C2c2cccs2)cc1 (stereo unspecified),1.0,4.9,-0.8,5.1,13.3,-0.7,0.4,x,-2.2,-4.2
O=C(CN1CCOCC1)Nc1ccccc1Sc1ccccc1,1.3,5.9,0.5,8.2,1.2,-1.6,0.8,-10.8%,23.8,-6.7
O=C(Nc1ccc(Cl)cc1)N(Cc1cccs1)Cc1cccs1,x,-7.1,-0.5,x,x,x,0.0,3.0%,15.0,8.6
Cc1ccc(C(=O)NC(=S)/C=C2\N(C)c3ccccc3C2(C)C)cc1,-2.6,39.5,0.4,-13.1,-35.3,59.5,0.2,x,43.7,93.7*
CCc1ccccc1N(CC(=O)NC1CCCCC1)C(=O)CCCC(=O)Nc1ccccn1,-5.1,-7.6,0.2,-4.1,-5.2,0.3,6.2,x,9.0,-5.4
COC(=O)c1ccc(N2CCN(C)CC2)c(NC(=O)COc2ccc(C)cc2)c1,1.1,-5.6,0.3,3.1,4.3,-1.0,-1.1,-1.2%,28.2,3.6
Cc1ccccc1NC(=O)NCCCN1CCN(c2ccccc2)CC1,x,25.7,-0.1,x,x,x,4.4,19.2%,-12.5,x
O=C(CN1CCCCC1)Nc1ccccc1Oc1ccccc1,-0.2,-10.1,0.1,-31.9,-39.5,-6.2,-0.5,x,x,-0.9
O=C(c1cn(-c2ccccc2)nc1-c1cccs1)N1CCN(c2ccc(F)cc2)CC1,x,7.5,-0.4,x,x,x,5.8,6.0%,46.2,7.3
COc1ccc(C2c3c(ncn(Cc4ccco4)c3=N)Oc3ccc4ccccc4c32)cc1 (stereo unspecified),11.7,3.5,0.6,-22.5,-43.1,24.1,70.6*,x,8.9,-3.0
CCN(CC)CCNC(=O)c1ccc(NC(=O)Cc2ccsc2)cc1,0.3,-15.9,0.2,9.5,20.8,-1.7,-1.0,x,-5.6,-1.9
COc1ccc(CNC(=O)C/C(C)=N/NC(=O)C23CC4CC(CC(C4)C2)C3)cc1,1.2,-6.3,0.5,-3.1,1.3,6.4,-1.7,-3.2%,-6.9,-0.3
CC(C)Cc1ccc(CN2CCCC(NC(=O)c3cnc4ccccn4c3=O)C2)cc1 (stereo unspecified),3.3,-7.9,-1.5,8.9,6.8,0.5,-1.9,x,55.0*,-7.3
COC(=O)c1c(NC(=O)c2ccc(C)c(S(=O)(=O)Nc3ccccc3C)c2)sc2c1CCCC2,x,49.0,0.6,x,x,x,-0.4,-5.8%,-41.3,-3.7
O=c1[nH]nc(SCCS(=O)(=O)c2ccc(F)cc2)n1-c1ccc2c(c1)OCCO2,x,8.2,0.1,2.6,16.6,0.9,4.4,x,-12.8,3.9
Cn1c(=O)oc2cc(S(=O)(=O)N3CCc4ccccc4C3)ccc21,-2.4,x,0.4,x,x,x,x,5.0%,x,-8.6
CCCCC1=CC2=C(c3ccco3)C(=O)C(C)(OC(=O)c3ccc(OC)cc3)C(=O)C2=CN1CCCN(CC)CC (stereo unspecified),-2.8,0.0,-1.3,8.1,3.6,6.5,-12.4,32.3%,9.0,-5.0
Cc1ccc(COC(=O)c2nn(C)c(=O)c3ccccc23)cc1,-2.2,-1.8,0.8,-0.7,9.7,-0.2,-2.3,-10.0%,-5.9,-3.2
C=CCC(CC)C(=O)NC(=O)N1CCCc2ccccc21 (stereo unspecified),0.0,-12.7,0.5,15.0,6.4,1.1,-2.1,-4.2%,-9.8,-9.0
Cc1noc(C)c1C(=O)N(CC(C)C)c1nc2ccccc2s1,-1.9,4.8,-0.3,0.0,4.7,-3.8,4.2,x,2.3,-6.5
COc1cc(C)c(S(=O)(=O)N2CCCC2)cc1C(C)C,-13.4,-3.7,0.9,-14.9,-20.8,4.4,-2.7,-5.8%,15.0,-14.0
CC(C)(C)c1ccc(S(=O)(=O)N2CCN(CC(O)CN3CCOCC3)CC2)cc1 (stereo unspecified),-4.2,x,0.4,1.2,-2.7,-0.1,x,13.1%,x,-2.0

# Record cards, as listed above. Order of screens: MLL AF4-AF9 inh, Calb FLC, A1 inh, Ecoli rRNA inh, Ecoli rRNA inh OD600, Ecoli rRNA inh RFP, RanGTP-Impb inh, Vif TR-FRET, T cruzi inh, Beta apoptosis
# O=C(Nc1ccc(Cl)cc1)N(Cc1cccs1)Cc1cccs1 reads x, -7.1, -0.5, x, x, x, 0.0, 3.0%, 15.0, 8.6
# CC(C)(C)c1ccc(S(=O)(=O)N2CCN(CC(O)CN3CCOCC3)CC2)cc1 (stereo unspecified) reads -4.2, x, 0.4, 1.2, -2.7, -0.1, x, 13.1%, x, -2.0

# Next part:
SMILES,MLL AF4-AF9 inh,Calb FLC,A1 inh,Ecoli rRNA inh,Ecoli rRNA inh OD600,Ecoli rRNA inh RFP,RanGTP-Impb inh,Vif TR-FRET,T cruzi inh,Beta apoptosis
Cc1ccccc1CN1CCCNC1=O,x,-4.4,-0.2,x,x,x,2.6,-0.2%,5.1,-2.9
CC12CCC(C(=O)NNc3ccccc3)(OC1=O)C2(C)C (stereo unspecified),-13.1,-0.1,-0.3,5.2,4.9,0.7,2.2,13.7%,25.1,4.1
Cc1cc(NC(=O)CCCN2C(=O)c3cccnc3C2=O)ccc1Br,-2.0,7.5,0.8,4.5,10.2,3.7,1.7,-1.1%,-13.6,-4.4
Cc1nc2ccccn2c1-c1ccnc(SCc2ccc(Cl)cc2)n1,-3.3,-1.5,-1.1,-1.8,6.5,-0.8,3.2,x,-3.1,-6.4

# Three structures out of the list, ordered by formula weight, smallest number first:
SMILES,MLL AF4-AF9 inh,Calb FLC,A1 inh,Ecoli rRNA inh,Ecoli rRNA inh OD600,Ecoli rRNA inh RFP,RanGTP-Impb inh,Vif TR-FRET,T cruzi inh,Beta apoptosis
O=C(NCc1ccccn1)C(=O)NN=C1CCCCCCC1,-8.2,-15.0,0.7,14.3,27.6,8.3,2.8,0.5%,-2.3,-3.6
Cn1c(=O)oc2cc(S(=O)(=O)N3CCc4ccccc4C3)ccc21,-2.4,x,0.4,x,x,x,x,5.0%,x,-8.6
Cc1cc(NC(=O)CCCN2C(=O)c3cccnc3C2=O)ccc1Br,-2.0,7.5,0.8,4.5,10.2,3.7,1.7,-1.1%,-13.6,-4.4
